# Sa growth inh = S. aureus growth inhibition at 42 and 30 °C, primary screen, LtaS inhibitor project, RN4220, two temperatures; OD600, 20 h, 42 °C; hits give low values; relative growth, % (no concentration beside the values); 0.53% of 170,000 active; AID 720641, 2013;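 active = growth at 42 °C up to 50% and 20 or more points under that at 30 °C, or under 10% at both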;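 note: 300 nL library stock went into each well; scaled to the means of positive and negative controls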
# HCMV UL50-53 inh = inhibitors of HCMV UL50-UL53 interaction, biochemical, HTRF | HCMV UL50-UL53 nuclear egress complex (human cytomegalovirus) | normalized percent inhibition | inhibition, % (concentration not given with the values) | 0.15% of 190,000 active;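 active = both replicates at 50% or more, plus weaker picks with an unusually low signal ratio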;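 note: stock transfer was 100 nL into about 20 µL; 0% = negative control wells and 100% = wells with untagged competitor protein; inactives centre near -12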
# GIV Gai3 FP = inhibitors of GIV peptide binding to Galpha-i3, primary screen, biochemical, fluorescence polarization, FITC-GIV GBA peptide, rat Galphai3 | Guanine nucleotide-binding protein G(i) subunit alpha-3 (Rattus norvegicus), P08753 | 90 min; hits give low values; scaled: aluminum fluoride 0%, vehicle 100% | percent of control (FP), % (no concentration beside the values) | 0.42% of 210,000 active | AID 1224905, 2016;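 active = replicate mean at 85% of control or lower, very high polarization wells dropped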;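 note: wells of about 15 µL received 100 nL stock; the first replicate is given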
# Target sequence (P08753 whole entry, looked up): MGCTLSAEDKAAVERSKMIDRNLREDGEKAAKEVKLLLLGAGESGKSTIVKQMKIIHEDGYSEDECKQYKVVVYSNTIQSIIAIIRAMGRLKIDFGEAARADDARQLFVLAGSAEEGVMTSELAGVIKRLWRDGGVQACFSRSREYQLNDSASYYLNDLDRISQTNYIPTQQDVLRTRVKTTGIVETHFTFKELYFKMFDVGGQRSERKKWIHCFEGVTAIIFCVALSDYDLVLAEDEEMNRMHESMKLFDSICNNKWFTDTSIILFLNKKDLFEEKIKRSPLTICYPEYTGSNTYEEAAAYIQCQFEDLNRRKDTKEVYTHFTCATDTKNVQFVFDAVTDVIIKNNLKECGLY
# Sa growth inh second temp = recorded beside Sa growth inh, whose call it bears; relative growth, %; measured here: growth at 30 °C;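 optical density after 20 h as mean of two plates; 100% = untreated growth and lower means inhibition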
# Starred values were filed as active, the others as inactive; x = not tested or not shown; & = joins results of further samples.
(1) COc1cccc(CNn2c(-c3cccc(C)c3)nc3ccccc3c2=O)c1O
(2) CCN(CC)c1ccc2cc(-c3nc4ccccc4c(=O)[nH]3)c(=N)oc2c1
(3) Clc1cc(Br)ccc1-c1ccc(CNCc2cccnc2)o1
(4) Cn1nnc(-c2cc(Cl)cc(Cl)c2)n1
(5) CCOC(=O)Cc1csc(NC(=O)CSc2nc3c(C)c(C)ccc3cc2C#N)n1
(6) CC(=O)Nc1ccc(S(=O)(=O)NCCc2csc3nc(-c4ccc(Cl)cc4)nn23)cc1
(7) CCN(Cc1ccccc1)c1ccc(NS(=O)(=O)c2cc(OC)ccc2OC)cc1C(=O)O
(8) COc1ccc2[nH]c(=O)c(CN(C(=O)Nc3ccccc3)C3CCCC3)cc2c1
(9) CCCCN(CC)CCCNC(=O)c1cn(CC)c2ccc(S(=O)(=O)N3CCc4ccccc4C3)cc2c1=O
(10) Clc1ccc(CNc2ncnc3c(-c4ccc(Cl)cc4)noc23)cc1

Screen / compound no.,1,2,3,4,5,6,7,8,9,10
Sa growth inh,88,100,x,87,103,100,x,94,115,x
Sa growth inh second temp,84,83,x,81,89,95,x,91,85,x
HCMV UL50-53 inh,-34,-9,-18,-8,-11,x,6,-26,-22,-9
GIV Gai3 FP,101,8.2*,107,97,103,96,104,99,103,105

(11) O=C(COC(=O)Cn1cnc2ccccc2c1=O)Nc1ccc(N2CCOCC2)cc1
(12) CN1CCN(C(=O)C2c3ccccc3Oc3ccccc32)CC1
(13) COc1ccc(C(=O)NCc2ccc3c(c2)CCN3C(C)=O)cc1OC
(14) CS(=O)(=O)Nc1ccc(C(=O)N2CCN(c3ccccc3)CC2)cc1
(15) O=c1oc2ccc3ccccc3c2cc1-c1nnc(Nc2ccc(Cl)cc2Cl)s1
(16) COc1ccc(CN2CCN(c3ncnc4sc5c(c34)CCCC5)CC2)cc1F
(17) CCN(CC)S(=O)(=O)c1cccc(C(=O)N[C@H](C(=O)NCc2ccc3c(c2)OCO3)C(C)C)c1
(18) COc1ccc(CCN2C(=O)C(C(C)C)NC2=S)cc1OC (stereo not drawn)
(19) CC(C)(C)c1nnc(-c2cnccc2C(F)(F)F)o1
(20) CCN(CC)S(=O)(=O)c1cccc(C(=O)N/N=C/c2c(C)nn(-c3ccccc3)c2N2CCCC2)c1

Screen / compound no.,11,12,13,14,15,16,17,18,19,20
Sa growth inh,85,108,106,96,89,100,85,105,104,84
Sa growth inh second temp,96,97,91,105,83,81,95,92,97,88
HCMV UL50-53 inh,-7,10,x,-2,-42,-3,-11,2,6,-13
GIV Gai3 FP,x,107,98,102,99,102,x,x,111,x

(21) CN(C)c1ccnc(C(=O)O)c1
(22) COc1ccc(C(=O)SC2=NC(C)CC(=O)N2)cc1OC (stereo not drawn)
(23) Cc1ccc(SCC2CNC(c3ccc(N(C)C)cc3)O2)cc1 (stereo not drawn)
(24) CCCCOc1cc(CC2CNC(=O)N2)ccc1OC (stereo not drawn)
(25) CCCOc1ccc(C(=O)N2CCCC2C(=O)O)cc1 (stereo not drawn)
(26) O=C(c1ccc2c(=O)n(CCc3ccccc3)c(=O)[nH]c2c1)N1CCN(c2ccc(Cl)cc2)CC1
(27) CN(C)c1ccc(-c2noc(C3CCCCC3)n2)cc1
(28) NCC12CC3CC(C1)CC(CN)(C3)C2
(29) CCOC(=O)c1c(NC(=O)Cn2c(=O)cc(C)[nH]c2=O)sc(C(=O)NC)c1C
(30) O=C1CCC2=C(CCCC2)N1c1ccccc1

Screen / compound no.,21,22,23,24,25,26,27,28,29,30
Sa growth inh,81,109,119,x,96,86,x,113,83,110
Sa growth inh second temp,81,96,93,x,84,93,x,99,95,95
HCMV UL50-53 inh,-28,-4,-25,-13&-7&-17,-6,-12,-29,2,-1,44
GIV Gai3 FP,100,104,x,99,x,104,106,x,x,100

(31) Cc1cc(C(=O)CSc2nnc(Cc3ccccc3)o2)c(C)n1Cc1ccc2c(c1)OCO2
(32) CC(Oc1ccc(C(=O)c2ccc(F)cc2)cc1)C(=O)NC(N)=O (stereo not drawn)
(33) CCN1C(=O)C(OC(=O)c2cscn2)CC1c1ccc(OC)cc1 (stereo not drawn)
(34) O=C(O)C1CCCN(S(=O)(=O)c2ccc(Cl)cc2)C1 (stereo not drawn)
(35) COc1ccc2c(c1)CC(C(=O)Nc1c(C)cc(C)cc1C)CO2 (stereo not drawn)
(36) COc1ccccc1Cn1c(CNS(=O)(=O)c2c(C)cc(C)cc2C)nc2cccnc21
(37) Cc1cc(C)c(NC(=O)CSCC(=O)c2ccc(Cl)cc2)c(C)c1
(38) CNC(=O)C1Cc2ccccc2N1C(C)=O (stereo not drawn)
(39) O=C(COc1cccc(Oc2ccccc2)c1)Nc1ncccn1
(40) Cc1nc(NC(=O)CSC2=NCCS2)sc1C(=O)N(C)C

Screen / compound no.,31,32,33,34,35,36,37,38,39,40
Sa growth inh,103,108,93,97,89,104,103,x,102,108
Sa growth inh second temp,96,102,78,85,91,107,95,x,96,76
HCMV UL50-53 inh,-32,-37,1,-27,x,x,x,-17,-18,-13
GIV Gai3 FP,x,x,97,101,102,108,99,99,x,107

(41) COC(=O)c1ccccc1S(=O)(=O)N1CCC(C(=O)O)CC1
(42) Cc1nc2ccc(Cl)cc2n1CO
(43) CCN(CC)c1ccc2cc(C(=O)NC(C)=O)c(=Nc3cccc4ccccc34)oc2c1
(44) COc1ccc(NC(=O)CNS(=O)(=O)/C=C/c2ccc(C)cc2)cn1
(45) CCOC(=O)Cn1cc(C(=O)c2cccs2)c2ccccc21
(46) CCCn1c(=O)c2sccc2n2c(CCC(=O)NCCc3c[nH]c4ccccc34)nnc12
(47) OC(c1ccccc1)(c1ccccc1)C(F)F
(48) CCCn1c(=O)c2ccccc2n2c(=O)n(CC(=O)NCc3ccccc3Cl)nc12
(49) O=C(CSc1ccccc1)N1CCC2(CC1)Nc1ccccc1-n1cccc12
(50) COC(=O)c1cc(C2CC2)[nH]n1

Screen / compound no.,41,42,43,44,45,46,47,48,49,50
Sa growth inh,106,107,x,84,92,x,101,x,x,97
Sa growth inh second temp,88,82,x,89,66,x,91,x,x,88
HCMV UL50-53 inh,5,-9,-20,-26,-1,-20,-29,-14,-39,x
GIV Gai3 FP,x,x,105,x,108,97,x,106,102,100

(51) O=C(Nc1ccc(S(=O)(=O)N2CCOCC2)cc1)c1cnccn1
(52) Cc1ccc(Cn2cnc3c(nnn3Cc3ccc(C)cc3)c2=O)cc1
(53) COc1ccc(N(C)C(=O)c2cc(S(=O)(=O)N3CCc4ccccc43)cn2C)c(OC)c1
(54) O=C(NC1CCCC1)c1cc2nc(-c3ccccc3)cc(-c3ccccc3)n2n1
(55) C=CCn1ccn(-c2ccc(OCC)cc2)c(=O)c1=O
(56) CCOC(=O)c1cc(C#N)c(=O)[nH]c1-c1ccccc1
(57) CCC1=NN(C(=O)c2ccc(-c3ccccc3)cc2)C(O)(C(F)(F)F)C1 (stereo not drawn)
(58) C=CCN(c1nc(C)c(Br)c(OC)n1)S(=O)(=O)c1ccc(C)cc1
(59) COc1ccc(OC)c(CNC(=O)c2ccc3c(c2)c(C)c(C)n3Cc2ccc(Cl)cc2)c1
(60) NNC(=O)c1ncoc1-c1ccc(Cl)cc1

Screen / compound no.,51,52,53,54,55,56,57,58,59,60
Sa growth inh,109,108,90,98,107,x,x,x,100,90
Sa growth inh second temp,86,104,91,93,95,x,x,x,95,81
HCMV UL50-53 inh,-6,4,9,x,-54,-5,3,-5,x,-34
GIV Gai3 FP,103,102,102,109,101,98,111,98,99,103

(61) CCOC(=O)c1c(C)n(-c2ccccc2)c2c1cc(OC(=O)c1ccccc1)c1ccccc12
(62) O=S1(=O)N=C(NNS(=O)(=O)c2ccccc2)c2ccccc21
(63) Cc1ccc(S(=O)(=O)N2CCN(C(=O)Cn3c(=O)oc4ccccc43)CC2)cc1
(64) COC(=O)c1sccc1NC(=O)CC1C(=O)NCCN1C(=O)c1ccccc1 (stereo not drawn)
(65) Cc1nc2c(ccc3ccsc32)s1
(66) O=C(NNc1nc(N2CCOCC2)nc(N2CCOCC2)n1)c1ccc(F)cc1
(67) Cc1nc(C)c(C(=O)N/N=C/c2ccc(O)cc2O)cc1C(=O)N/N=C/c1ccc(O)cc1O
(68) Fc1cc2c(c(CSc3nc4ccccc4s3)c1)OCOC2
(69) COC(=O)c1c(NC(=O)CSc2ncnc3sc(C)c(C)c23)sc2c1CCC2
(70) Cc1ccsc1C(=O)OC1CCOC1=O (stereo not drawn)

Screen / compound no.,61,62,63,64,65,66,67,68,69,70
Sa growth inh,x,86,94,100,92,103,74,85,x,99
Sa growth inh second temp,x,112,104,96,89,94,67,91,x,88
HCMV UL50-53 inh,-5,-3,-1,-8,-26,-18,-28,-29,10,-7
GIV Gai3 FP,104,95,x,105,104,96,103,104,106,x

(71) O=C(CN(CCO)CC(=O)Nc1ccc(C(F)(F)F)cc1)Nc1ccc(C(F)(F)F)cc1
(72) S=C(NC1CCCCC1)C12CCC3CC(CC(C3)C1)C2
(73) COC(=O)c1cc2occc2n1C
(74) CCOc1ccccc1C(=O)NC1CC2CCCC(C1)N2Cc1nnnn1Cc1ccco1 (stereo not drawn)
(75) Nc1cc(-c2ccccc2)nn1Cc1ccc(Cl)cc1
(76) COc1cccc(CNC(=O)C(C)N2Cc3ccccc3C2=O)c1 (stereo not drawn)
(77) O=C(Cn1cc(S(=O)(=O)N2CCN(c3ccccc3F)CC2)c2ccccc2c1=O)Nc1ccc(F)cc1Cl
(78) N#CNC1=NCN(C2CCCCC2)CN1
(79) COc1ccc(OC)c(NC(=O)c2cc(C(F)(F)F)n(C)n2)c1
(80) CCc1[nH]nc2c1C(C1C=CCCC1)C(C#N)=C(N)O2 (stereo not drawn)

Screen / compound no.,71,72,73,74,75,76,77,78,79,80
Sa growth inh,102,108,108,89,91,103,102,87,x,97
Sa growth inh second temp,63,89,80,84,84,85,99,72,x,68
HCMV UL50-53 inh,-26,x,x,-5,-5,-18,6,-39,-4,-23
GIV Gai3 FP,x,101,102,96,x,100,109,100,98,98

(81) Cc1[nH]c2ccccc2c1C(=O)CSc1nnc(CN(c2ccc(F)cc2)S(C)(=O)=O)n1C
(82) Cc1ccc(S(=O)(=O)N2CCCC(c3nnc4n3-c3ccccc3SC4)C2)cc1 (stereo not drawn)
(83) CCOc1ccc(NC(=O)Cn2cc(C(=O)c3ccccc3)c(=O)c3cc(OC)ccc32)cc1
(84) O=C1NC(c2cccc(F)c2)=N/C1=C/c1cc2c(cc1Cl)OCO2
(85) CCOc1ccccc1CNC(=O)C1CCN(C(=O)N2CCOc3ccc(Cl)cc32)CC1
(86) Cc1cccc(COc2nn[nH]n2)c1
(87) COC(=O)c1sccc1NC(=O)C1c2ccccc2Oc2ccccc21
(88) Cc1ccc(NC(=O)CSc2nc3nccnc3c(=O)n2CCc2c[nH]c3ccccc23)c(C)c1
(89) Cc1cccc2cc(-c3nc(-c4cccs4)no3)c(=O)oc12
(90) CCCCN(C)CCNC(=O)c1cc(-c2ccc(Cl)s2)nc2ccccc12

Screen / compound no.,81,82,83,84,85,86,87,88,89,90
Sa growth inh,x,102,106,96,117,68,101,97,112,101
Sa growth inh second temp,x,78,87,68,99,84,89,100,91,88
HCMV UL50-53 inh,-10,-8,-15,x,-4,-31,-6,-10,x,-44
GIV Gai3 FP,105,x,102,117,101,x,102,107,103,111

(91) Cc1cc(C)c2c(n1)SCCN2C(=O)Nc1ccc(C(=O)NCCN2CCN(C)CC2)cc1
(92) CCN(CC)C(=O)Cn1c(=O)n(Cc2ccccc2)c(=O)c2c1c(C)nn2CC
(93) O=C(O)CCC(=O)Nc1ccccc1O
(94) Cc1nc2nc(N)nn2c(C)c1CC(=O)NC(C)c1ccccc1 (stereo not drawn)
(95) O=C(/C=C/c1ccccc1)NCc1n[nH]c(=O)c2ccccc12
(96) O=C(Nc1ccncc1)c1c(Cl)nc2sccn12

Screen / compound no.,91,92,93,94,95,96
Sa growth inh,x,x,81,90,121,111
Sa growth inh second temp,x,x,97,93,89,89
HCMV UL50-53 inh,7,6,-7,-28,-35,-15
GIV Gai3 FP,100,98,141,x,104,x

# High-throughput results (PubChem)
